Screens as filed in PubChem.
KCNQ2 pot – potentiators of rat KCNQ2 potassium channel. B-score at 10 µM. CHO-K1 KCNQ2, FluxOR thallium flux fluorescence; stronger effect = higher value. 310,000 compounds, 0.54% hits. Potassium voltage-gated channel subfamily KQT member 2 (Rattus norvegicus), O88943. AID 2239, 2010;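 active = fluorescence ratio B-score at least 3 SD of library B-scores, with initial fluorescence B-score within 3 SD, cut at about 5.3 in these data; same plate scores as AID 2156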;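 note: B-score of peak minus minimum over baseline fluorescence ratio after K+ and Tl+ stimulus; positive B-score means potentiation of KCNQ2 with more thallium influx and brighter signal; only the inactives scoring about 0 or higher are listed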
Target sequence (O88943 whole entry, looked up): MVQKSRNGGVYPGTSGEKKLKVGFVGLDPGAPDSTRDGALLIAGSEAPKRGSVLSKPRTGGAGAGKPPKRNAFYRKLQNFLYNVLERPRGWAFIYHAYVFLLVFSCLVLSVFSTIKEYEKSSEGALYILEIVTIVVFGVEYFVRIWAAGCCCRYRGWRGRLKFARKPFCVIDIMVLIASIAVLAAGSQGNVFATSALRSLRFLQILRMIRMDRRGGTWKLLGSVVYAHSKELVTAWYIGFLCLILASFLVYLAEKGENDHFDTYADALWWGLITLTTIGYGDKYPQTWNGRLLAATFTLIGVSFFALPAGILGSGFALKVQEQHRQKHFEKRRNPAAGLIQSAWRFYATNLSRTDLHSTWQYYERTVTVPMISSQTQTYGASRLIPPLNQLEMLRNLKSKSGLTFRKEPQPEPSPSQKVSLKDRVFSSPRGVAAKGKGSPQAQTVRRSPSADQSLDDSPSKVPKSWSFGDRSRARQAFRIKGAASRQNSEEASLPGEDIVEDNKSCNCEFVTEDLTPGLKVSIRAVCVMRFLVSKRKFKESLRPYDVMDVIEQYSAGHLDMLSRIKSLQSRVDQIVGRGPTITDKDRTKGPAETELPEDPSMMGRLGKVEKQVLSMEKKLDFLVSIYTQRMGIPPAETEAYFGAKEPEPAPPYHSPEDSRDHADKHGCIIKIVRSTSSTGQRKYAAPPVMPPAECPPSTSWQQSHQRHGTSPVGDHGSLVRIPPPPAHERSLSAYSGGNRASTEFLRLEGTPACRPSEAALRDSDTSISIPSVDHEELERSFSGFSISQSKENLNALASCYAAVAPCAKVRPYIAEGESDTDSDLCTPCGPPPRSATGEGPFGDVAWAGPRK
KCNQ2 pot baseline – recorded beside KCNQ2 pot, whose call it bears; B-score; compound at 10 µM; measured here: initial fluorescence intensity artifact check;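 brightness before thallium and not channel activity; 0 = typical well and far values either way flag optical interference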
* marks the source's active call; other numbers are inactive results.

SMILES	KCNQ2 pot	KCNQ2 pot baseline
COc1ccc(C2C(C#N)=C(N)N(c3ccccc3)C3=C2C(=O)CCC3)cc1Cn1cc([N+](=O)[O-])cn1 (centres undefined)	0.46	-1.4
C(=N\Nc1ncnc2nc[nH]c12)/c1cccs1	1.5	-0.77
COc1ccc(N2CCN(S(=O)(=O)c3c(C)noc3/C=C/N(C)C)CC2)cc1	0.03	-2.2
Cc1ccc(NC(=O)c2ccc(Cn3cc([N+](=O)[O-])cn3)cc2)c(C)c1	1	-1.8
CC1CN(C(=O)CSc2nnc3c(Cl)cc(Cl)cn23)CC(C)O1 (centres undefined)	1.6	-0.92
CC1(CO)COC(c2ccccc2)=N1 (centres undefined)	1.8	0.15
COc1ccccc1NC(=O)COC(=O)c1oc2ccccc2c1C	1.2	0.21
CC1CC(C)CN(C(=O)C2CCN(S(=O)(=O)N3CCC4(CC3)OCCO4)CC2)C1 (centres undefined)	1.7	-0.32
CCOc1[nH]n(-c2ccccc2)c(=O)c1C=Nc1ccc(C(=O)OC)cc1	1.1	0.42
O=C(CN1CCN(c2ccccc2O)CC1)NC(=O)NCc1ccco1	2.2	0.14
Cc1cc(=O)n2nc(N3CCC(C(=O)NCc4ccccc4Cl)CC3)sc2n1	0.24	-0.09
CC(C)NS(=O)(=O)c1ccc(CCC(=O)NCc2cccnc2)cc1	0.48	-1.4

Among those listed so far, 2 contain a nitro group on carbon.
SMILES	KCNQ2 pot	KCNQ2 pot baseline
COc1ccc(C2C(C#N)=C(N)N(c3ccccc3)C3=C2C(=O)CCC3)cc1Cn1cc([N+](=O)[O-])cn1 (centres undefined)	0.46	-1.4
Cc1ccc(NC(=O)c2ccc(Cn3cc([N+](=O)[O-])cn3)cc2)c(C)c1	1	-1.8

The listing continues.
SMILES	KCNQ2 pot	KCNQ2 pot baseline
CC1CCC2(CC1)NC(=O)N(Cc1cc(=O)n3ccsc3n1)C2=O (centres undefined)	0.16	-0.86
CC1CC(C)(C)NC(=S)N1CCCC(=O)Nc1ccccc1F (centres undefined)	2.3	-1.9
COc1cccc(NC(=O)Cn2c(=O)n(CCC(=O)NC3CCN(Cc4ccccc4)CC3)c(=O)c3ccccc32)c1	0.25	0.27
CCOC(=O)C1CCN(c2ncnc3c2cnn3-c2ccc(Cl)cc2)CC1	0.7	1
O=C(Nc1cccc(O)c1)c1ccc(Br)cc1	3	-0.01
Cc1ccc(NC(=O)CSc2nnc(N)s2)cc1S(=O)(=O)N1CCCCC1	1.9	-1.3
CC(C)CC(O)C1CCN(C(=O)CCc2nnc(-c3ccc4c(c3)OCO4)o2)CC1 (centres undefined)	0.21	-1
CC1Cc2ccccc2N1c1ncnc2nc[nH]c12 (centres undefined)	0.02	-2.6
Nc1cc(S(=O)(=O)Nc2cc(Cl)ccc2Cl)ccc1N1CCOCC1	0.57	0.46
O=C(c1[nH]ncc1[N+](=O)[O-])N1CCOCC1	0.22	1.3
COc1cccc(/C=N/Nc2cc(C)nc(-c3ccccc3O)n2)c1O	2	0.71
CCNC(=O)c1ccccc1SCC(=O)Nc1ccc(F)cc1	2.2	-1.3
C=CCn1c(=N)n(CC(=O)c2ccc(Br)cc2)c2ccccc21	0.03	2.3
COc1ccc(NS(=O)(=O)c2ccc(C)cc2)c([N+](=O)[O-])c1	0.92	0.11
Cc1ccsc1/C=C/C(=O)O	0.34	1.7
Cc1onc(-c2ccccc2)c1C(=O)NNC(=S)NC(=O)c1ccc(Br)cc1	3.6	-0.45
CCCC(=O)Nc1c(-c2cccc(C)c2)c(=O)c2ccccc2n1C	0.16	-0.75
N#Cc1ccc(-c2cn3c(n2)SCC3)cc1	1.4	-1.5
CC(=O)NCCNC(=O)c1ccc(Sc2ccccc2)c([N+](=O)[O-])c1	0.34	0.21
Cn1nnc(NC(=O)c2ccc([N+](=O)[O-])cc2Cl)n1	0.06	-0.4
Cc1nccn1CCCN1C(=O)OC2(CCCCC2)C1(C)O (centres undefined)	0.01	1.5
Cc1c(-c2ccccc2)c(=O)oc2cc(O)ccc12	1.8	0.47
CC1=CC(C)(C)Nc2ccc(C)cc21	1.1	-0.58
CCCN(CCC)CCCNC(=O)c1cc2cc3ccc(Cl)cc3nc2o1	3.8	0.42
COc1ccc(C(=O)N2CCN(c3ccc(NC(=O)c4cccs4)cc3)CC2)cc1	0.54	-0.48
CC(C)CNC(=S)N(CCCO)Cc1cc2cc3c(cc2[nH]c1=O)OCO3	0.05	0.43
CCOc1cc(C(=O)OCC(=O)NC(C)c2ccccc2)ccc1OCC(=O)N1CCOCC1 (centres undefined)	0.07	1.7
CCCCn1c(N)c(N(CCOC)C(=O)c2ccc(F)c(S(=O)(=O)N3CCOCC3)c2)c(=O)[nH]c1=O	0.88	-1.4
CCC(C)NS(=O)(=O)c1ccc(OCC(=O)Nc2ccc3c(c2)OCCO3)cc1 (centres undefined)	0.38	-1.3
Cc1cc(NS(=O)(=O)c2ccc(NC(=S)NC(=O)c3ccc(F)cc3Cl)cc2)no1	0.44	-0.1
O=C(NCCCn1ccnc1)c1c(F)cccc1F	1.3	1.8
CCCN(c1ccccc1F)S(=O)(=O)c1c[nH]c(C(=O)OC)c1	0.06	-0.1
COCCSc1nnc(-c2cnccn2)o1	0.56	-0.33
O=C1c2[nH]nc(-c3ccccc3O)c2C(c2ccc(F)cc2)N1Cc1ccco1 (centres undefined)	0.61	0
CCN1CCN(Cc2nc3cc(NC(=O)COc4ccc([N+](=O)[O-])cc4)ccc3n2C)CC1	1.8	0.48
Cc1c(CCC(=O)NCCCCCC(=O)O)c(=O)oc2c(C)c3oc4c(c3cc12)CCCC4	2	-1.2
CC1CCN(S(=O)(=O)c2ccc3c(c2)CCN3C(=O)C2CCC2)CC1	0.73	-0.23
COc1ccccc1/C=C/C=N/NC(=O)c1cc(-c2ccco2)[nH]n1	1.6	-0.93
C=C(C)CNC(=O)c1ccc(OC2CCN(C(=O)COC)CC2)cc1	0.28	0.37
CC1CCCC(NC(=O)CN2CCN(Cc3ccc(Cl)cc3)C2=O)C1C (centres undefined)	0.02	-1.3
CC(=O)c1ccc(OC(=O)N(c2ccccc2)c2ccccc2)cc1	0.87	-0.85
CCCc1nnc(NC(=O)CCC(=O)Nc2ccc(F)cc2)s1	0.88	-0.38
O=C(C1CCCO1)N1CCN(C(=S)Nc2ccc(Cl)cc2Cl)CC1 (centres undefined)	2.4	1.7
CC(C(=O)NC1C=CS(=O)(=O)C1)N1C(=O)/C(=C/c2ccc(Cl)cc2)SC1=S (centres undefined)	1.2	-2.9
Cc1csc(N2CCCC2c2nc3cc(Cl)c(N4CCCCC4)cc3n2CCOCCO)n1 (centres undefined)	1.4	0.35
Cc1ccc(C)n1-c1nnc(N2CCC(C(=O)NCCCN3CC(C)CC(C)C3)CC2)s1 (centres undefined)	1.4	-0.49
Cc1ccc(NC(=O)C2CCCN(S(=O)(=O)c3c(C)noc3C)C2)cc1F (centres undefined)	1.7	0
Cc1ccc(C(=O)NCCc2nnc3ccc(SCC(=O)Nc4ccc(C)cc4C)nn23)cc1	0.33	-1.2
O=C(CCCSc1nc2ccccc2s1)NCc1ccc2c(c1)OCO2	2	0.12
O=C(Nc1ccccc1C(F)(F)F)c1ccccn1	0.55	-1.6
Cc1ccc(N2CC(C(=O)NCCS(=O)(=O)N3CCN(c4ccccc4)CC3)CC2=O)cc1 (centres undefined)	1.4	1.9
CSc1ncccc1C(=O)OCC(=O)N1CCOCC1	0.44	0.45
CC1(C)CC(=O)C2=C(C1)Nc1ccccc1NC2c1ccc(F)c(F)c1 (centres undefined)	1.1	-0.72
CCCOc1ccc(N2CC(C(=O)Nc3ncccc3C)CC2=O)cc1 (centres undefined)	0.94	0.5
O=C(O)C(Oc1ccc2ccccc2c1)c1ccccc1 (centres undefined)	0.12	-0.11
CCOC(=O)CNS(=O)(=O)c1ccc(C(=O)O)cc1	0.19	-0.15
Cc1cccnc1NC(=O)c1cccc(S(=O)(=O)N2CCCc3ccccc32)c1	0.03	1.6
S=C(NNc1nc(Nc2ccccc2)nc(N2CCCCC2)n1)NC1CCCCC1	0.15	-1.8
CCOC(=O)N1CCC(N2Cc3cccc(C(=O)NCc4ccc(OC)cc4)c3C2=O)CC1	0.27	-0.44
CCc1ccc(-c2cc(C(=O)N/N=C/c3ccco3)[nH]n2)cc1	1.3	0.34
More compounds follow:
SMILES	KCNQ2 pot	KCNQ2 pot baseline
CC(C)c1ccc(NC(=O)COC(=O)COc2ccccc2)cc1	0.73	-0.67
COc1ccc(/C=N/NC(=O)c2ccc3nc[nH]c3c2)c(OC)c1	1.2	2.2
CCC(C)(C)C1CCc2c(sc(NC(=O)c3ccoc3C)c2C(N)=O)C1 (centres undefined)	1.6	-0.65
Cc1ccc(CC(=O)OCCNC(=O)c2cccnc2)cc1	1.7	0.6
O=C(O)c1cn(-c2ccc(F)cc2)c(=O)c2ccccc12	1.6	-0.44
COc1ccc(NC(=O)CS(=O)CC(=O)Nc2ccc(NC(C)=O)cc2)cc1 (centres undefined)	1.4	0.64
CCC(C)Nc1nc2c(c(=O)n(C)c(=O)n2C)n1Cc1cccc(C)c1 (centres undefined)	2.1	-1.4
Cc1ccccc1CNS(=O)(=O)c1csc(C(N)=O)c1	0.42	0.14
COc1ccccc1C(=O)Nc1nc2ccc(S(C)(=O)=O)cc2s1	2.5	-2.2
Cc1ccc(C)c(NC(=O)Cc2csc(-c3ccccc3)n2)c1	0.76	-2.5
COCCNC(=O)c1onc(CSc2ccccn2)c1C(=O)NCCOC	1.6	-0.03
CCCCCCCCCCS(=O)(=O)N/N=C/c1ccc([N+](=O)[O-])cc1	5	1.3

Four entries from above, comma-delimited.
SMILES,KCNQ2 pot,KCNQ2 pot baseline
CCC(C)Nc1nc2c(c(=O)n(C)c(=O)n2C)n1Cc1cccc(C)c1 (centres undefined),2.1,-1.4
Cc1ccccc1CNS(=O)(=O)c1csc(C(N)=O)c1,0.42,0.14
COc1ccccc1C(=O)Nc1nc2ccc(S(C)(=O)=O)cc2s1,2.5,-2.2
Cc1ccc(C)c(NC(=O)Cc2csc(-c3ccccc3)n2)c1,0.76,-2.5

More results
SMILES	KCNQ2 pot	KCNQ2 pot baseline
Cc1nc2ccc(NC(=O)COc3ccccc3C)cc2s1	1.1	-0.27
COc1ccc(CCN/C=C2/CC(=O)NC2=O)cc1OC	1.2	-1.8
Cc1cc(C)cc(NC(=O)CCNS(=O)(=O)c2cc(Br)cnc2N)c1	1.3	0.52
COc1ccc2[nH]c(C(=O)O)c(NS(=O)(=O)c3ccc(OC)c(OC)c3)c2c1	0.97	-1.9
COc1ccc(NCc2nnc(SCC(=O)Nc3nc(-c4ccccc4)cs3)n2-c2ccccc2)cc1	1.3	-2
CCCC(=O)Nc1ccc(C(=O)Nc2nnc(COC)s2)cc1	2.6	0.38
CC(/C=C1\SC(=S)N(NS(=O)(=O)c2ccccc2)C1=O)=C\c1ccccc1	12*	-1.8*
[O-]/[N+](=C/c1ccco1)c1ccccc1	1.9	-0.56
COc1ccc(NCN2C(=O)C3C4C=CC(C4)C3C2=O)cc1 (centres undefined)	0.97	-0.75
O=C(CN1CCC(n2nnc3cc(C(F)(F)F)ccc32)CC1)NNC(=O)c1ccco1	0.15	-0.35
COc1ccc(-c2cnc(N)n2CC2CCCO2)cc1 (centres undefined)	0.99	-2.7
Cc1nn(C2CCS(=O)(=O)C2)c(Cl)c1/C=C/C(=O)OCC(=O)c1c[nH]c2ccccc12 (centres undefined)	0.03	-0.02
CCOc1cc(C2C3=C(CCCC3=O)Nc3nc(C(=O)OC)nn32)ccc1OC (centres undefined)	0.01	1.3
Cc1onc(-c2ccccc2Cl)c1C(=O)Nc1ccccc1C(=O)NC(C)C	0.68	-0.03
COC(=O)c1ccc(N2C(=O)CC(N3CCN(c4ccccc4)CC3)C2=O)cc1 (centres undefined)	0.43	-0.05
Cc1cc(C)n2nc(SCCCC(=O)c3ccccc3)nc2n1	0.57	0.02
COC(=O)c1ccc(CSc2nnc(NC(=O)C3CC(=O)N(Cc4ccc(C)cc4)C3)s2)cc1 (centres undefined)	0.03	-0.25
Cc1[nH]n(-c2ccccc2)c(=O)c1N=Nc1ccccc1O	1.5	0.57
Cc1cc(C)[n+](Cc2ccccc2)cc1C(N)=O	0.26	0.71
COc1cccc(/C=N/NC(=O)CC2C(=O)NN=C2C)c1OC (centres undefined)	0.26	0.26
COC(=O)COc1ccc(S(=O)(=O)N2CCc3ccccc3C2)cc1	0.89	-0.01
Cn1c(=O)c2c(n(C)c1=O)=NC1(CCCCC1)ON=2	1.6	-0.94
CCN1C(=O)[C@@H]2[C@H](C1=O)[C@@H]1C(=O)Nc3ccccc3C(=O)N1[C@@H]2c1ccc(Br)cc1	0.17	-0.54
Cc1ccc(C(=O)N2c3ccccc3NC(=O)C2C)cc1 (centres undefined)	0.34	0.66

Among those listed so far, these have bromine.
SMILES	KCNQ2 pot	KCNQ2 pot baseline
O=C(Nc1cccc(O)c1)c1ccc(Br)cc1	3	-0.01
C=CCn1c(=N)n(CC(=O)c2ccc(Br)cc2)c2ccccc21	0.03	2.3
Cc1onc(-c2ccccc2)c1C(=O)NNC(=S)NC(=O)c1ccc(Br)cc1	3.6	-0.45
Cc1cc(C)cc(NC(=O)CCNS(=O)(=O)c2cc(Br)cnc2N)c1	1.3	0.52
CCN1C(=O)[C@@H]2[C@H](C1=O)[C@@H]1C(=O)Nc3ccccc3C(=O)N1[C@@H]2c1ccc(Br)cc1	0.17	-0.54

The results go on:
SMILES	KCNQ2 pot	KCNQ2 pot baseline
CCCCN(C)C1=Nc2cccc3cccc1c23	1.7	-0.3
CCN1CCN(C(=O)CCc2nnc(CCc3ccccc3OC)o2)[C@@H](C)C1=O	0.91	1.1
CN(Cc1nccs1)C(=O)C1CCC(=O)N(CCc2cccc(F)c2)C1 (centres undefined)	0.36	-1
COc1ccc(NC2c3ccccc3C(=O)N2Cc2ccccc2Cl)cc1OC (centres undefined)	0.08	-0.05
O=C(CCSCc1ccccc1F)NCc1cccs1	2.1	-0.35

This is a subset (hit frequency here may not be typical).
